gsp antagonist = antagonists of gsp mutant (McCune-Albright syndrome); gsp-mutant cells, cAMP HTRF, 30 min; control for the full effect not named in the record; Potency, µM (titrated, usually from 76.9 µM), for inactives: at the highest dose activity change, negative = inhibition, actives largely listed as inhibitors; 0.4% of 340,000 active; AID 624288; active = falling curve of any shape with a large fitted effect; inconclusive = falling curve, mostly with a smaller effect; inactive = flat or rising curve; cell line not stated here;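 further: intracellular cAMP measured with PDE inhibitor Ro 20-1724 present during compound exposure; potency means the concentration at half of the fitted maximal effect; on the % scale 0 is the no-effect control and ±100 the full control effect; nearly all actives have a fitted effect of over 65% in size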
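Measurement of cellular cAMP by homogeneous time-resolved fluorescence following a 30 min compound exposure at 37C. The PDE inhibitor […] was present throughout; the assay buffer was DPBS with 0.05% BSA and 0.005% Tween 20.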
gsp agonist = gsp mutant agonism; AID 624287; gsp mutant cells, cAMP HTRF, 30 min; control for the full effect not named in the record; Potency, µM (highest dose often 76.9 µM), for the others: at the top dose activation (cAMP increase), usual class: activators; 0.13% of 340,000 active; active = well fitted activation curve with a large enough effect; inconclusive = small, poorly fitted or top-dose-only effect, or another doubt; inactive = no such curve, though single readings can be large or run the other way; cell line not stated here;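 further: phosphodiesterase inhibitor Ro 20-1724 added with compounds to block cAMP breakdown; potency means the concentration at half of the fitted maximal effect; nearly all actives have a fitted effect of over 60% in size; about a fifth of the inactives were tested at one dose only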
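Cells in DMEM/10% FBS with G418 were pretreated with compounds in DMSO plus […] (300 uM stock) for 30 min at 37C. cAMP was measured by HTRF (cAMP-d2 plus anti-cAMP antibody-K) after 30 min at room temperature.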
D2 PAM = human D2 receptor positive allosteric modulation | P14416 | 0.23% of 360,000 active | potentiation, % (test concentration not listed) | DiscoveRx D2 beta-arrestin cells, luminescence, 90 min; 100% = 57 uM dopamine signal | AID 624464; active = potentiation of 50% or more; inconclusive = 30% to 50%; inactive = 30% or less;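 further: compound concentration not given in the record; tested on top of an EC20 dose of dopamine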
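PathHunter D2 cells, attached overnight at 37 deg C, received compound in DMSO plus dopamine at EC20 (50 nM final) for 90 min at 37 deg C. Beta-arrestin recruitment was read as luminescence after 1 h with detection reagent at ambient temperature.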
TRPV1 potentiator = potentiators of human vanilloid receptor 1 (TRPV1); Q8NER1; TRPV1-expressing cells, Fluo-8 calcium influx, capsaicin EC20 potentiation; host cell line not named in the record; control for the full effect not named in the record; potentiation, % at 8.33 µM; 0.02% of 320,000 active; active means potentiation above 80%; inconclusive means 30% to 80%; inactive means below 30%; further: 0% is about no effect
Target sequence (Q8NER1 whole entry, looked up): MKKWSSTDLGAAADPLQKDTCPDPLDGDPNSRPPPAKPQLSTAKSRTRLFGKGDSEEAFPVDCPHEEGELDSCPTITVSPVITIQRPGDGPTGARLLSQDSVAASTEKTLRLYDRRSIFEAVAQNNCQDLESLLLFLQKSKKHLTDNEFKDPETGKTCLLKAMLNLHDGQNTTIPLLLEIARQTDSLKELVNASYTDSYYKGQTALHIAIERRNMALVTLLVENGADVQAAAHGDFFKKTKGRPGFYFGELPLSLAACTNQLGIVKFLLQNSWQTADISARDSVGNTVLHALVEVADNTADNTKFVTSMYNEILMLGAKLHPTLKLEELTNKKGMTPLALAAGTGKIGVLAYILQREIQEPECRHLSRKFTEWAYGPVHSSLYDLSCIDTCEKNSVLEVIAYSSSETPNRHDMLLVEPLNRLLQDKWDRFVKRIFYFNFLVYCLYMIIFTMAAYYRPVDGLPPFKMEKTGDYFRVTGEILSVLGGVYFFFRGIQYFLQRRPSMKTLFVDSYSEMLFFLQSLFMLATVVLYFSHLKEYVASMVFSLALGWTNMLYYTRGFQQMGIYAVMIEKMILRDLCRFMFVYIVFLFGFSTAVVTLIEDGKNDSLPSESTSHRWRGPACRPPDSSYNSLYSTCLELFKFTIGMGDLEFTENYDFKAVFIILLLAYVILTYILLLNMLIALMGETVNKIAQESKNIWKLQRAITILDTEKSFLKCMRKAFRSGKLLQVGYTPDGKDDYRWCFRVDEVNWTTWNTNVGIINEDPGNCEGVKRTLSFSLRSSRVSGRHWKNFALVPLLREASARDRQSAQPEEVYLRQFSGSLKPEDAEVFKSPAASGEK
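Fluo-8 calcium influx in TRPV1-expressing cells, kinetic read (ex 480/em 520 nm). Compound added and read 3 min for agonist activity, followed by capsaicin at EC20 final and 2 min further read for enhancement.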
Menin MLL FP FL = displaces fluorescein MLL peptide from human menin; Fluorescence polarization, fluorescein-MLL peptide displacement from menin; 290,000 tested, under 10 active; AID 1766; FP activity change, % at 61.4 µM; inconclusive = falling polarisation curve, or a change in total fluorescence; inactive = total fluorescence flat and polarisation flat or rising; no compound was filed as active; the % refers to the polarisation; negative = inhibition;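 further: % of control where 0% means no effect; inhibitors lower the polarisation; unlabelled MLL peptide was the positive control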
ClpP mod = qHTS Assay for Activators of ClpP; ATP-dependent Clp protease proteolytic subunit (Bacillus subtilis (strain 168)), P80244; purified B. subtilis ClpP, FRET peptide cleavage, 20 min; Potency, µM (series often up to 57.5 µM), without a hit: at the highest dose activity change, negative = active; 1.9% of 340,000 active; active = well fitted falling curve with a large enough effect; inconclusive = small, poorly fitted or top-dose-only effect; inactive = no such curve, though single readings can be large or run the other way; further: potency means the concentration at half of the fitted maximal effect; the source files actives as falling curves though it sought activators and does not explain the sign; nearly all actives have a fitted effect of over 65% in size; many hits overshoot -100%
Target sequence (P80244 whole entry, looked up): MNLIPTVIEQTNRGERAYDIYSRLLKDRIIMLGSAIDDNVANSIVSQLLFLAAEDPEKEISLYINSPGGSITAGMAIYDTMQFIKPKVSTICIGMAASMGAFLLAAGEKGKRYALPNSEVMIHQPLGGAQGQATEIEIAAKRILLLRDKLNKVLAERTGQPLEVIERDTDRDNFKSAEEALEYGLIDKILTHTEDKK
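Purified B. subtilis ClpP, 10 microg/mL final in Tris/HCl pH8 with KCl, BSA, glycerol and Tween-20, cleaved an Abz/nitrotyrosine-quenched decapeptide. Fluorescence (ex 320, em 430) was read at 0 and 20 min at room temperature. Delta was normalized to 5.8 microM ADEP and DMSO/no-enzyme controls.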
Sfp PPTase inh = blocks B. subtilis Sfp PPTase activity; Biochemical Sfp PPTase activity, qHTS; 3.5% of 310,000 active; Potency, µM, for inactives: max response, negative = inhibition, most hits filed as inhibitors; Q9F4F7; active means well fitted inhibition curve with a large enough effect; inconclusive means small, poorly fitted or top-dose-only effect, or another doubt; inactive means no such curve, though single readings can be large or run the other way;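 further: the enzyme is Sfp with the accession as filed and its product quenches rhodamine fluorescence; potency means the concentration at half of the fitted maximal effect; 0% = enzyme reaction without inhibitor and -100% = no enzyme wells; top concentration of the series not given in the record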
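Compounds were incubated with enzyme (final 15 nM) for 15 min at room temperature before substrate addition started the reaction. Fluorescence at 525 nm excitation, 598 nm emission was recorded immediately and after 30 minutes.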
An asterisk follows results filed as active; ? = inconclusive; nt = not tested or not shown; & = joins results of further samples; [ ] = another dose, or the depositor's remark.

SMILES	gsp antagonist	gsp agonist	D2 PAM	TRPV1 potentiator	Menin MLL FP FL	ClpP mod	Sfp PPTase inh
CC(C)(C)c1nnc(NC(=O)CCn2cnc3ccccc3c2=O)s1	2%	1%	0	16	0.6	0.7%	9%
COc1ccc(CCNc2oc(COc3ccc(F)cc3)nc2C#N)cc1	18%	4%	-24	-2	-4.8	0.2%	18%
CC1=CC(c2ccccc2)n2nc(NC(=O)CCC(=O)O)nc2N1 (stereo unspecified)	11%	17%[15.4 µM]	-1	-5	2.3	nt	-26%
COc1ccc(Cc2nnc(NC(=O)CS(=O)(=O)Cc3ccccc3)s2)cc1	?	13%	-1	nt	nt	1.0%	nt
CN(CC(=O)Nc1cccc(F)c1)C(=O)c1cccc(S(=O)(=O)N2CCN(c3ccccc3)CC2)c1	-18%	-76%[inhibitor]	-3	-4	nt	-2.0%	13%
Cc1ccc(-c2n[nH]c(=S)n2/N=C/c2cc3c(cc2[N+](=O)[O-])OCO3)cc1	-24%	-13%	5	0	-2.4	-1.8%	-23%
CC(=O)Oc1ccccc1N1C(=O)c2ccc(C(=O)O)cc2C1=O	1%	12%	3	-3	8.7	0.5%	0%
COC(=O)C1=CN(C(C)C)C=C(C(=O)OC)C1c1cc2c(cc1Br)OCO2	0%	12%	-11	-21	-2.2	32µM*	-7%
N#C/C(=C\c1cccs1)C(=O)c1ccccc1Cl	-1%	-3%	-8	-11	6.1	1.1%	28µM*
CCN(c1ccccc1)S(=O)(=O)c1ccc(C(=O)N(CCCN(C)C)c2nc3cc4c(cc3s2)OCO4)cc1	-5%	?	-48	-16	nt	-0.6%	?
Cc1ccc(/C=C/c2nc3ccccc3c(=O)n2CCc2ccccc2)cc1	3%	-3%	-14	-12	2.1	-25%	-12%
Cc1ccc(S(=O)(=O)Oc2ccc(/C=N/NC(=O)c3ccncc3)cc2)cc1	-17%	-1%[15.4 µM]	-6	-12	4.1	-2.9%	13%
CCN(CC)CCCNC(=O)CN1N=C(c2ccc(OC)cc2)CCC1=O	-4%	-11%	1	-1	2.3	3.0%&-0.4%	12%
c1ccc(N(c2ccccc2)c2nc(N3CCCC3)nc(-n3ccnc3)n2)cc1	-1%	30%	-18	3	0.4	-14%	45µM*
CCN(CC)S(=O)(=O)c1ccc(NC(=O)CN(c2cccc(F)c2)S(C)(=O)=O)cc1	-18%	5%	-7	-23	3.9	-3.5%	-3%
CCOC(=O)c1cc(-c2sc(NC(=O)c3ccccc3)nc2C)n(CCO)n1	nt	-34%[inhibitor]	5	nt	nt	-0.8%	nt
COc1cccc(NC(=O)NCCCN2CCN(c3ccc(F)cc3)CC2)c1	4%	11%	-27	-18	-3.6	-1.5%	6%
Cc1ccc(-c2[nH]c(=O)n3ccncc23)s1	?	-4%[15.4 µM]	21	3	?	2.4%	-21%
COc1ccc(/C(C)=N/OCC(=O)N2CC3(C)CC2CC(C)(C)C3)cc1 (stereo unspecified)	8%	-5%[15.4 µM]	-10	15	1.0	1.0%	-12%
O=C(CSc1nnnn1-c1ccccc1)N1CCN(C(=O)c2ccco2)CC1	2%	2%	-17	3	1.1	0.9%	4%
O=C(c1cc2cc3ccc(Cl)cc3nc2o1)N1CCCCCC1	15%	-12%	-2	-13	2.7	-4.1%	12%
Cc1ccc(NC(=O)c2nc(S(=O)(=O)Cc3ccccc3C)ncc2Cl)cc1C	-9%	-1%[15.4 µM]	-12	-5	0.3	nt	-16%
O=C(COc1cccnc1[N+](=O)[O-])NCc1ccc2c(c1)OCO2	4%	8%	5	4	7.6	0.5%	-8%
CCOc1ccccc1NC(=O)c1ccc(NC(=O)C2CCCO2)cc1 (stereo unspecified)	-30%	-3%[15.4 µM]	0	2	-3.5	nt	7%
COC(=O)C(Cc1c[nH]c2ccccc12)NC(=O)c1cccs1 (stereo unspecified)	-1%	-36%[inhibitor]	3	-3	7.2	0.0%	5%
O=S(=O)(CS(=O)(=O)Oc1ccccc1)Oc1ccccc1	-5%	-19%	-17	nt	nt	0.8%	nt
COc1ccccc1NC(=O)CSc1nnc(-c2ccoc2C)o1	-11%	-16%	-1	1	nt	0.1%	nt
COc1ccc(CN2CCNC(=O)C2CC(=O)NCCCC2CCCC2)c(F)c1 (stereo unspecified)	2%	-38%[inhibitor]	-8	-3	nt	2.4%	5%
COC(=O)[C@H](C)NC(=O)NCc1ccccc1F	5%	0%	-13	-1	1.6	-1.5%	17%
CCC(C)C(NC(=O)c1ccccc1NC(=O)c1ccc(OC)cc1)C(=O)NCCCn1ccnc1 (stereo unspecified)	nt	21%[15.4 µM]	0	-1	-0.5	nt	3%
O=C(CCCOc1ccc(Cl)cc1Cl)Nc1ncccn1	-4%	-3%[15.4 µM]	-15	nt	0.7	nt	3%
Cc1ccc(NC(=O)CS(=O)CC(=O)Nc2cnc3ccccc3c2)cc1Cl (stereo unspecified)	-16%	0%[15.4 µM]	-12	-9	1.2	nt	13%
COc1cc(C2NC(=O)N(C)C(C)=C2C(=O)OCc2ccccc2)cc(Br)c1O (stereo unspecified)	-3%	20%	-13	5	2.0	2.0%	4%
Cc1cc(C)c(C(CC(=O)c2cccs2)C(C#N)C#N)c(C)c1 (stereo unspecified)	-19%	-11%[15.4 µM]	-13	-9	3.8	nt	-3%
Cn1c(CCN2CCN(c3ccccn3)CC2)nc2cc(NS(=O)(=O)c3ccc(F)cc3)ccc21	nt	-10%	2	nt	nt	-2.1%	nt
O=C1CCCCC1(CCc1ccncc1)CCc1ccncc1	-2%	-1%[15.4 µM]	-5	nt	nt	1.5%	nt
COc1cc(Cl)c(S(=O)(=O)NCc2ccccn2)cc1Cl	1%	3%	-7	-1	0.5	0.2%	-7%
CC(CNC(=O)c1ccco1)NC(=O)c1ccco1 (stereo unspecified)	4%	-2%[15.4 µM]	-4	-1	1.2	nt	29%
COc1ccc(N2CCN(C(=S)Nc3ccccc3)CC2)cc1	-2%	1%[15.4 µM]	-6	20	-8.1	0.9%	18%
N#C/C(=C\c1cc(Cl)c(OCc2ccc(Cl)cc2)c(Cl)c1)C(N)=O	nt	nt	nt	-2	0.8	nt	-1%
COc1ccc(CCNC(=O)CSc2n[nH]c(N)n2)cc1OC	-11%	18%[15.4 µM]	-12	9	-1.7	nt	18%
O=C(CSc1ccc2nnc(-c3ccccn3)n2n1)NCC1CCCO1 (stereo unspecified)	13%	?	-1	-9	-4.4	5.0%	?
COC(=O)C1=C(C)N(CCCC(=O)O)C(=O)NC1c1cccs1 (stereo unspecified)	8%	nt	-25	12	1.8	0.5%	22%
COc1ccc(S(=O)(=O)N2CCCCC2)cc1NC(=O)c1cncc(Br)c1	4%	20%	1	-13	nt	0.6%	nt
CNC(=S)N1N=C(c2ccc(Br)cc2)CC1c1ccc(OC)cc1 (stereo unspecified)	-2%	14%	-13	11	0.0	-3.0%	45µM*
CCCCN(Cc1ccccc1)S(=O)(=O)c1c(N)n(C)c(=O)n(C)c1=O	3%	-12%	-10	3	-1.3	-0.8%	8%
Nc1ccc(NC(=O)CCN2CCOCC2)cc1	0%	-7%[15.4 µM]	4	2	1.2	-2.3%	4%
O=C(COc1ccccc1Cl)NCCNC(=O)c1ccccn1	0%	3%	-4	-5	0.1	nt	11%
CCC(CC)NC(=O)C1CC(=O)N(CCc2ccc(F)cc2)C1 (stereo unspecified)	5%	-18%	-8	7	1.6	2.4%	4%
Cc1ccc(C(=O)c2c[nH]c(C(=O)NCCCN3CCOCC3)c2)cc1	1%	-29%	-19	-11	3.2	2.0%	18%
Cc1nn(-c2ccc(F)cc2)c(Cl)c1C(=O)N(C)CC(=O)Nc1cccc(F)c1	-1%	20%[15.4 µM]	-15	-6	nt	-1.7%	nt
O=C(O)c1ccc(CSc2nnc(-c3ccccc3)n2-c2ccccc2)cc1	-9%	5%[15.4 µM]	-6	-5	5.6	nt	8%
Cc1ccc(/C=C/C(=O)Nc2ccccc2C(N)=O)cc1	-2%	-31%[inhibitor]	7	-15	0.2	177%	-9%
NC(=O)C(c1ccc(Cl)cc1Cl)c1ncc(C(F)(F)F)cc1Cl (stereo unspecified)	-4%	?	-5	-3	5.1	0.1%	17%
COc1cc(CNCc2cccc(OC)c2OC)cc(OC)c1	2%	15%	-10	-12	0.8	-1.2%	-1%
c1ccc(-c2cc3ccccc3[nH]2)cc1	-16%	nt	2	1	-0.3	4.8%	2%
CCOC(=O)C1CCN(C(=O)c2ccc(Cl)c(S(=O)(=O)N3CCCC3)c2)CC1	4%	-2%[15.4 µM]	-13	6	nt	1.4%	8%
Cc1cccc(OCCC(=O)NNC(=O)c2ccoc2C)c1	5%	14%	1	-9	nt	-6.1%	nt
COc1ccc(/C=C/CN2CCCC(C(=O)c3ccc(OC)c(F)c3)C2)cc1 (stereo unspecified)	15%	-4%[15.4 µM]	-17	3	0.8	nt	-5%
CCOC1=CC(=O)OC(c2ccccc2)C1 (stereo unspecified)	5%	-1%	-5	nt	nt	nt	nt
(more compounds)
SMILES	gsp antagonist	gsp agonist	D2 PAM	TRPV1 potentiator	Menin MLL FP FL	ClpP mod	Sfp PPTase inh
CCOC(=O)N1CCC(NC(=O)c2cc3cc4cc(OC)ccc4nc3o2)CC1	?	8%	-2	12	-0.5	?	13%
Cc1ccc(NC(=O)COc2cccc(Oc3ccccc3)c2)cc1S(=O)(=O)N1CCOCC1	-19%	30%	-12	10	nt	-25%	nt
COc1ccccc1C(=O)Oc1ccc(N2C(=O)CCC2=O)cc1	9%	3%	4	0	-2.4	-4.9%	14%
CCN(CC(=O)NCc1cccs1)C(=O)CCC(=O)c1ccc(C)cc1	8%	3%	18	-5	nt	-1.7%	nt
CCOC(=O)c1sc(NC(=O)CSc2nc(C)cc(C)n2)c(C#N)c1C	-12%	1%	-2	-3	3.2	-6.0%	-1%
CN(C)CCNC(=O)NC1CCCCC1	-4%	-17%	2	16	-0.6	-3.3%	0%

High-throughput results (PubChem BioAssay)
